Assay outcomes as filed in PubChem.
Yeast UUG start – yeast start codon fidelity modulation; S. cerevisiae UUG-firefly luciferase reporter, luminescence/redox ratio; activity score, % at 18.7 µM; 350,000 tested, 0.13% active;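 active = replicate mean at a twofold rise or more, about +100% in these data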;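 note: firefly luciferase made from a UUG start codon reports start codon fidelity; reporter light over untreated wells divided by growth signal over untreated wells; some hits fall short of that in this replicate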
The depositor's hits bear a star; & = joins results of further samples. Some of the compounds tested (hit frequency here may not be typical).

Yeast UUG start | mol
9 | O=C(C1CCC1)N1CCCCN2[C@@H](CO)[C@@H](c3ccc(C#CC4(O)CCCC4)cc3)[C@@H]2C1
15 | CC=Cc1ccc2n(c1=O)C[C@H]1[C@H](CO)[C@@H](C(=O)N3CCc4ccccc4C3)[C@@H]2N1Cc1ccccc1 (mixture of isomers)
16 | CCC(=O)N1[C@H](CN(C(C)C)S(C)(=O)=O)[C@H](c2ccccc2)[C@@H]1CO
-12 | CN1c2ccc(-c3ccc(C#N)cc3)cc2[C@H]2[C@H](CCN2C(=O)C2CCCCC2)[C@@H]1CO
-3 | CO[C@@H]1CN(C)C(=O)c2cc(NC(=O)C3CCC3)ccc2OC[C@@H](C)N(Cc2nccs2)C[C@@H]1C
-11 | Cc1ccc(S(=O)(=O)N2C[C@H]3[C@@H](c4ccccc42)[C@H](CO)N3Cc2cccnc2)cc1
1 | CN1c2ccc(-c3ccccc3)cc2[C@@H]2[C@@H](CCN2C(=O)c2ccccc2)[C@H]1CO
-8 | COc1ccc(-c2ccc3c(c2)[C@@H]2[C@@H](CCN2S(=O)(=O)c2ccc(OC)cc2)[C@H](CO)N3C)cc1
-10 | COCC(=O)Nc1ccc2c(c1)[C@@H]1C[C@H](CC(=O)NCC3CC3)O[C@@H](CO)[C@@H]1O2
-8 | COc1ccc(NC(=O)Nc2cccc3c2O[C@H](CN(C)C(=O)Nc2ccc4c(c2)OCO4)[C@H](C)CN([C@H](C)CO)C3=O)cc1
1 | CCN(C[C@H]1N[C@H](CO)[C@@H]1c1ccc(-c2ccccc2)cc1)C(=O)COC
-9 | C[C@@H]1CN([C@@H](C)CO)C(=O)c2cccc(N(C)C)c2O[C@H]1CN(C)S(=O)(=O)c1ccccc1
0 | C[C@@H]1CN([C@@H](C)CO)C(=O)Cc2cc(NC(=O)c3ccncc3)ccc2O[C@H]1CN(C)S(=O)(=O)c1ccc(Cl)cc1
1 | Cn1cnc(S(=O)(=O)N2CCCCN3[C@@H](CO)[C@@H](c4ccc(-c5ccccc5F)cc4)[C@@H]3C2)c1
7 | CN(C)C(=O)c1ccc(-c2ccc([C@@H]3[C@@H](CO)N4CCCCN(C(=O)C5CCC5)C[C@@H]34)cc2)cc1
-20 | COCC(=O)Nc1ccc2c(c1)OC[C@@H](C)N(Cc1ccccn1)C[C@H](C)[C@@H](OC)CN(C)C2=O
-2 | CN(C)C(=O)c1ccc(-c2ccc3c(c2)[C@@H]2[C@@H](CCN2C(=O)c2ccccn2)[C@H](CO)N3)cc1
-3 | C[C@H]1CN([C@@H](C)CO)C(=O)c2cccc(NC(=O)c3ccc(-c4nccs4)cc3)c2O[C@H]1CN(C)C(=O)Nc1ccc2c(c1)OCO2
1 | CCCNC(=O)N1[C@H](CO)[C@H]2c3ccccc3N(C(=O)Nc3cccc(F)c3)C[C@H]21
-11 | COc1ccc(S(=O)(=O)N2CC[C@@H]3[C@H]2c2cc(-c4ccc(F)cc4)ccc2N(C)[C@H]3CO)cc1
12 | C[C@@H]1CN([C@@H](C)CO)C(=O)c2c(c3ccccc3n2C)-c2ccccc2CO[C@H]1CN(C)S(=O)(=O)c1ccc(F)cc1
-3 | O=C(c1ccccc1F)N1CC[C@H]2[C@H](CO)Nc3ccc(C#Cc4ccccc4)cc3[C@H]21
-9 | Cc1ccccc1S(=O)(=O)N1CCCCN2[C@H](CO)[C@@H](c3ccc(-c4ccccc4)cc3)[C@H]2C1
-7 | CO[C@H]1CN(C)C(=O)c2cc(NS(=O)(=O)c3ccccc3)ccc2OC[C@H](C)NC[C@@H]1C
0 | O=C(c1ccccn1)N1C[C@H]2[C@@H](c3ccccc31)[C@@H](CO)N2C(=O)C1CCCC1

7 successive entries already listed, for reference:
Yeast UUG start | mol
-3 | CO[C@@H]1CN(C)C(=O)c2cc(NC(=O)C3CCC3)ccc2OC[C@@H](C)N(Cc2nccs2)C[C@@H]1C
-11 | Cc1ccc(S(=O)(=O)N2C[C@H]3[C@@H](c4ccccc42)[C@H](CO)N3Cc2cccnc2)cc1
1 | CN1c2ccc(-c3ccccc3)cc2[C@@H]2[C@@H](CCN2C(=O)c2ccccc2)[C@H]1CO
-8 | COc1ccc(-c2ccc3c(c2)[C@@H]2[C@@H](CCN2S(=O)(=O)c2ccc(OC)cc2)[C@H](CO)N3C)cc1
-10 | COCC(=O)Nc1ccc2c(c1)[C@@H]1C[C@H](CC(=O)NCC3CC3)O[C@@H](CO)[C@@H]1O2
-8 | COc1ccc(NC(=O)Nc2cccc3c2O[C@H](CN(C)C(=O)Nc2ccc4c(c2)OCO4)[C@H](C)CN([C@H](C)CO)C3=O)cc1
1 | CCN(C[C@H]1N[C@H](CO)[C@@H]1c1ccc(-c2ccccc2)cc1)C(=O)COC

New compounds follow:
Yeast UUG start | mol
-14 | O=C(NCc1ccncn1)[C@@H]1[C@@H](CO)[C@@H]2Cn3c(ccc(-c4ccncc4)c3=O)[C@@H]2N1CC1CC1
46 | CCC(=O)N1C[C@H]2[C@@H](c3ccccc31)[C@H](CO)N2C(=O)Nc1ccccc1
20 | O=C(CN1CCOCC1)N1CC[C@@H]2[C@@H](CO)Nc3ccc(-c4ccccc4F)cc3[C@@H]21
-5 | C[C@@H]1CN([C@@H](C)CO)C(=O)c2c(c3ccccc3n2C)-c2ccccc2CO[C@H]1CN(C)CC1CC1
-4 | O=C(C[C@@H]1CC[C@@H]2[C@H](COC[C@@H](O)CN2C(=O)c2ccccc2F)O1)NCc1ccc(F)cc1
13 | CCS(=O)(=O)N1CCCCN2[C@H](CO)[C@@H](c3ccc(-c4ccc(C#N)cc4)cc3)[C@@H]2C1
15 | O=C(C[C@@H]1CC[C@@H]2[C@H](COC[C@H](O)CN2Cc2ccc(Oc3ccccc3)cc2)O1)N1CCCCC1
3&-1 | CCCN(C[C@@H]1[C@@H](c2ccccc2)[C@H](CO)N1C(C)=O)C(=O)NC(C)C
-1 | C[C@@H]1CN([C@@H](C)CO)C(=O)Cc2cc(NC(=O)c3ccncc3)ccc2O[C@@H]1CN(C)C(=O)Nc1ccccc1
-4 | C[C@@H]1CN([C@H](C)CO)C(=O)c2cccc(NC(=O)c3ccncc3)c2O[C@H]1CN(C)C
-4 | C[C@H]1CN([C@@H](C)CO)C(=O)c2cc(NC(=O)CCN3CCOCC3)ccc2O[C@H]1CN(C)C(=O)Nc1ccc2c(c1)OCO2
16 | O=C(C[C@H]1CC[C@@H]2[C@H](COC[C@H](O)CN2S(=O)(=O)c2ccccc2)O1)N1CCc2ccccc2C1
-9 | O=C(c1ccncc1)N1C[C@H]2[C@@H](c3ccccc31)[C@H](CO)N2C(=O)Nc1ccccc1Cl
-9 | CCCNC(=O)C[C@@H]1C[C@H]2c3cc(NC(=O)CC4CC4)ccc3O[C@H]2[C@@H](CO)O1
-22 | C[C@@H]1CN([C@H](C)CO)C(=O)c2cccc(NC(=O)C3CCCCC3)c2O[C@H]1CN(C)Cc1ccncc1
-17 | O=C(c1ccc(F)cc1)N1CC[C@@H]2[C@@H](CO)Nc3ccc(C#Cc4ccccc4F)cc3[C@@H]21
5 | C[C@H](NC(=O)C[C@@H]1CC[C@H]2[C@@H](COC[C@@H](O)CN2C(=O)Nc2cccc(F)c2)O1)c1ccccc1
-7 | O=C(Cc1ccccc1)N1C[C@@H]2[C@H](c3ccccc31)[C@@H](CO)N2S(=O)(=O)c1ccccc1
-12 | C[C@H]1CN([C@@H](C)CO)C(=O)c2cc(NC(=O)Nc3ccc4c(c3)OCO4)ccc2O[C@H]1CN(C)C(=O)Nc1cccc2ccccc12
-10 | COCC(=O)Nc1ccc2c(c1)OC[C@@H](C)N(Cc1ccccn1)C[C@@H](C)[C@@H](OC)CN(C)C2=O
-7 | CO[C@H]1CN(C)C(=O)c2cc(NC(=O)C3CC3)ccc2OC[C@H](C)N(Cc2cccnc2)C[C@H]1C
7 | O=C(C[C@H]1C[C@@H]2c3cc(NS(=O)(=O)c4ccccc4)ccc3O[C@@H]2[C@@H](CO)O1)NC1CCCC1
2 | CCN(C[C@@H]1[C@@H](c2ccccc2)[C@H](CO)N1Cc1cccnc1)C(C)=O
-3 | C[C@@H]1CN([C@@H](C)CO)C(=O)c2cc(NC(=O)Nc3ccc(C(F)(F)F)cc3)ccc2O[C@@H]1CN(C)Cc1ccncc1
-8 | COCC(=O)Nc1ccc2c(c1)C(=O)N(C)C[C@@H](OC)[C@@H](C)CN(CC1CCCCC1)[C@@H](C)CO2
13 | CCCC#Cc1ccc([C@H]2[C@H]3CN(S(=O)(=O)c4ccccc4C)CCCCN3[C@H]2CO)cc1
10 | C[C@@H]1CN([C@H](C)CO)C(=O)c2cccc(NC(=O)c3nc4ccccc4s3)c2O[C@@H]1CN(C)CC1CCCCC1
-7 | CO[C@H]1CN(C)C(=O)c2cc(NC(=O)C3CC3)ccc2OC[C@H](C)N(CC2CCOCC2)C[C@H]1C
-1 | O=C(Cc1ccccc1)N1C[C@@H]2[C@H](c3ccccc31)[C@@H](CO)N2C(=O)C1CC1
-4 | Cc1cccc(S(=O)(=O)N2CCCCN3[C@H](C2)[C@@H](c2ccc(C#C[C@H](C)O)cc2)[C@@H]3CO)c1
13 | Cc1ccc(S(=O)(=O)Nc2cccc3c2O[C@@H](CN(C)C(=O)NC(C)C)[C@@H](C)CN([C@@H](C)CO)C3=O)cc1
-6 | C[C@H](CO)N1C[C@H](C)[C@@H](CN(C)C)Oc2c(NC(=O)c3ccc(-c4nccs4)cc3)cccc2C1=O
20 | N#Cc1cccc(-c2ccc([C@@H]3[C@@H](CO)N4CCCCN(C(=O)Nc5ccccc5)C[C@H]34)cc2)c1
-11 | CCCNC(=O)C[C@H]1C[C@H]2c3cc(NC(=O)c4ccc5c(c4)OCO5)ccc3O[C@H]2[C@@H](CO)O1
-9 | CCCNC(=O)N1C[C@H]2[C@@H](c3ccccc31)[C@H](CO)N2C(=O)C1CCOCC1
-7 | COCC(=O)Nc1ccc2c(c1)C(=O)N(C)C[C@@H](OC)[C@H](C)CN(C(=O)c1cccnc1)[C@H](C)CO2
17 | CCS(=O)(=O)N1CCCCN2[C@@H](CO)[C@@H](c3ccc(-c4ccc(C#N)cc4)cc3)[C@@H]2C1
1 | CC(C)[C@H](C)NC(=O)N(C)C[C@H]1OCc2ccccc2-c2c(n(C)c3ccccc23)C(=O)N([C@@H](C)CO)C[C@@H]1C
27 | CCNC(=O)C[C@H]1CC[C@H]2[C@H](COc3ccc(NC(=O)c4ccc(F)c(F)c4)cc3C(=O)N2C)O1
5 | OC[C@@H]1[C@H](c2ccc(-c3ccccc3F)cc2)[C@H]2CN(Cc3cncnc3)CCCCN12
-8 | C[C@@H]1CN([C@@H](C)CO)C(=O)c2cccc(NC(=O)NC3CCCCC3)c2O[C@H]1CN(C)S(=O)(=O)c1cn(C)cn1
-3 | CC(C)NC(=O)Nc1cccc2c1O[C@@H](CN(C)C(=O)Nc1ccc3c(c1)OCO3)[C@H](C)CN([C@H](C)CO)C2=O
-13 | COCC(=O)Nc1ccc2c(c1)C(=O)N(C)[C@@H]1CC[C@H](CC(=O)NCCCN(C)C)O[C@@H]1CO2
-1 | C[C@@H]1CN([C@@H](C)CO)C(=O)c2cc(NC(=O)Nc3ccccc3)ccc2O[C@@H]1CN(C)CC1CCCCC1
10 | C[C@@H]1CN([C@@H](C)CO)C(=O)c2cc(NC(=O)CCCN(C)C)ccc2O[C@H]1CN(C)S(=O)(=O)c1ccc(Cl)cc1
0 | COc1ccc(S(=O)(=O)Nc2ccc3c(c2)C(=O)N([C@@H](C)CO)C[C@@H](C)[C@@H](CN(C)C(=O)Nc2cccc4ccccc24)O3)cc1
12 | CCCC(=O)Nc1ccc2c(c1)OC[C@@H](C)N(Cc1ccc(-c3ccccn3)cc1)C[C@H](C)[C@@H](OC)CN(C)C2=O
5 | C[C@@H]1CN([C@@H](C)CO)C(=O)CCCn2nncc2CO[C@@H]1CN(C)Cc1cccc(C(=O)O)c1
-9 | CO[C@H]1CN(C)C(=O)c2cc(NC(C)=O)ccc2OC[C@@H](C)N(C(=O)C2CCC2)C[C@H]1C
-1 | COc1ccc(NC(=O)Nc2ccc3c(c2)C(=O)N([C@H](C)CO)C[C@H](C)[C@H](CN(C)Cc2ccc(-c4ccccc4)cc2)O3)cc1

More structures.
Yeast UUG start | mol
5 | O=C(C[C@@H]1CC[C@H]2[C@@H](COC[C@@H](O)CN2Cc2ccccc2)O1)NCc1ccccc1Cl
-14 | CC(C)NC(=O)N1C[C@@H]2[C@H](c3ccccc31)[C@@H](CO)N2C(=O)c1ccncc1
13 | CO[C@H]1CN(C)C(=O)c2cc(NC(=O)c3cc(C)on3)ccc2OC[C@@H](C)N(C(C)=O)C[C@H]1C
7 | O=S(=O)(c1ccccc1)N1CCCCN2[C@H](CO)[C@H](c3ccc(-c4ccccc4)cc3)[C@H]2C1
85 | CCC(=O)N1[C@H](CO)[C@H](c2ccc(-c3ccccc3)cc2)[C@@H]1CNC(=O)COC
-5 | CN1c2ccc(-c3cccc(C#N)c3)cc2[C@H]2[C@H](CCN2S(=O)(=O)c2ccccc2)[C@H]1CO
23 | CCCNC(=O)NC[C@H]1[C@@H](c2ccc(C3=CCCC3)cc2)[C@@H](CO)N1C(C)=O
-12 | O=C(C[C@@H]1C[C@@H]2c3cc(NC(=O)Nc4ccccc4F)ccc3O[C@@H]2[C@H](CO)O1)NCCc1ccccc1
-8 | O=C(c1ccc2c(c1)OCO2)N1CC[C@@H]2[C@@H](CO)Nc3ccc(C#Cc4ccccc4)cc3[C@@H]21
1 | Cc1ccc(S(=O)(=O)N2C[C@@H](O)COC[C@H]3O[C@@H](CC(=O)NCCN4CCCCC4)CC[C@@H]32)cc1

Some of these compounds in order of heavy-atom count, smallest number first:
Yeast UUG start | mol
-14 | CC(C)NC(=O)N1C[C@@H]2[C@H](c3ccccc31)[C@@H](CO)N2C(=O)c1ccncc1
5 | O=C(C[C@@H]1CC[C@H]2[C@@H](COC[C@@H](O)CN2Cc2ccccc2)O1)NCc1ccccc1Cl
-5 | CN1c2ccc(-c3cccc(C#N)c3)cc2[C@H]2[C@H](CCN2S(=O)(=O)c2ccccc2)[C@H]1CO
-8 | O=C(c1ccc2c(c1)OCO2)N1CC[C@@H]2[C@@H](CO)Nc3ccc(C#Cc4ccccc4)cc3[C@@H]21
1 | Cc1ccc(S(=O)(=O)N2C[C@@H](O)COC[C@H]3O[C@@H](CC(=O)NCCN4CCCCC4)CC[C@@H]32)cc1
